Source: PubChem BioAssay
Hedgehog: Hh protein inhibition, biochemical readout – plate reader, single concentration, primary screen (AID 588832); inhibition, % at 30.3 µM; Biochemical plate reader assay, Hedgehog inhibition; active compounds read high; 8,000 tested, under 10 active; in the data active means inhibition from about 57%;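 further: 0% = neutral control wells and 100% = positive control wells; cholesterol-driven self-cleavage of fly hedgehog protein by fluorescence polarization; read one hour after cholesterol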
An asterisk follows results filed as active. This is a subset; rates above refer to the full screens.

> CCC(C)(O)C(=O)OC1C(=O)OC2CC3C(C)=CC(O)C(O)C3(C)C3C4(O)OCC23C1C(C)C4O (stereo not given)
  Hedgehog: 5.2
> CCCCCCCCn1sccc1=O
  Hedgehog: 0.0
> C/C=C1\CN2[C@H]3C[C@@]45c6ccccc6N(C)[C@H]4[C@@H]2CC1C3[C@H]5O (stereo not given in full)
  Hedgehog: 5.2
> Nc1c(Br)cc([N+](=O)[O-])cc1[N+](=O)[O-]
  Hedgehog: 3.6
> CCC(=O)Nc1ccccc1
  Hedgehog: 1.7
> Cc1cc(O)c2c(C)c(CC(=O)N3C[C@H]4C[C@@H](C3)c3cccc(=O)n3C4)c(=O)oc2c1
  Hedgehog: 4.9
> Cc1cc(O)c2c(c1)C(=O)C13C(=C2O)C(=O)[C@H]2[C@@H](O)[C@@H]1[C@H]1[C@H](O)[C@@H]3C(=O)C3=C(O)c4c(O)cc(C)cc4C(=O)C312 (stereo not given in full)
  Hedgehog: 8.2
> CC(=O)N1N=C2C3CCN(CC3)C2C1c1ccc(C)cc1 (stereo not given)
  Hedgehog: 19.1
> CN1C(=O)c2ccccc2NC(=O)C1Cc1ccccc1 (stereo not given)
  Hedgehog: 3.5
> O=C(CN1CC(c2ccccc2)CC1=O)NCc1ccc(F)cc1 (stereo not given)
  Hedgehog: 20.8

> Oc1ccc(Cl)c(Cl)c1
  Hedgehog: 8.9
> CC(C)C(O)(C(=O)OCC1=CCN2CCC(O)C12)C(C)O (stereo not given)
  Hedgehog: -3.4
> O=C(CN1CC(c2ccccc2)CC1=O)Nc1cccc(F)c1 (stereo not given)
  Hedgehog: 20.0
> O=C(CN1CCOCC1)c1ccc2cc[nH]c2c1
  Hedgehog: 0.0
> CCc1cc(=O)oc2c(C)c(OCC(=O)N3C[C@H]4C[C@@H](C3)c3cccc(=O)n3C4)ccc12
  Hedgehog: 7.0
> Nc1cc(Cl)cc(Cl)c1
  Hedgehog: 10.7
> COc1ccc(CCC(=O)N2C[C@H]3C[C@@H](C2)c2cccc(=O)n2C3)cc1
  Hedgehog: 3.6
> O=[N+]([O-])c1cc(Cl)c(Cl)cc1Cl
  Hedgehog: 5.4
> CN1CCc2c([nH]c3ccccc23)C1
  Hedgehog: 7.0
> CC1CCCCN1CC(=O)c1ccc2cc[nH]c2c1 (stereo not given)
  Hedgehog: 3.6

Copied from the entries so far (20 entries):
> CCC(C)(O)C(=O)OC1C(=O)OC2CC3C(C)=CC(O)C(O)C3(C)C3C4(O)OCC23C1C(C)C4O (stereo not given)
  Hedgehog: 5.2
> CCCCCCCCn1sccc1=O
  Hedgehog: 0.0
> C/C=C1\CN2[C@H]3C[C@@]45c6ccccc6N(C)[C@H]4[C@@H]2CC1C3[C@H]5O (stereo not given in full)
  Hedgehog: 5.2
> Nc1c(Br)cc([N+](=O)[O-])cc1[N+](=O)[O-]
  Hedgehog: 3.6
> CCC(=O)Nc1ccccc1
  Hedgehog: 1.7
> Cc1cc(O)c2c(C)c(CC(=O)N3C[C@H]4C[C@@H](C3)c3cccc(=O)n3C4)c(=O)oc2c1
  Hedgehog: 4.9
> Cc1cc(O)c2c(c1)C(=O)C13C(=C2O)C(=O)[C@H]2[C@@H](O)[C@@H]1[C@H]1[C@H](O)[C@@H]3C(=O)C3=C(O)c4c(O)cc(C)cc4C(=O)C312 (stereo not given in full)
  Hedgehog: 8.2
> CC(=O)N1N=C2C3CCN(CC3)C2C1c1ccc(C)cc1 (stereo not given)
  Hedgehog: 19.1
> CN1C(=O)c2ccccc2NC(=O)C1Cc1ccccc1 (stereo not given)
  Hedgehog: 3.5
> O=C(CN1CC(c2ccccc2)CC1=O)NCc1ccc(F)cc1 (stereo not given)
  Hedgehog: 20.8
> Oc1ccc(Cl)c(Cl)c1
  Hedgehog: 8.9
> CC(C)C(O)(C(=O)OCC1=CCN2CCC(O)C12)C(C)O (stereo not given)
  Hedgehog: -3.4

> O=C(CN1CC(c2ccccc2)CC1=O)Nc1cccc(F)c1 (stereo not given)
  Hedgehog: 20.0
> O=C(CN1CCOCC1)c1ccc2cc[nH]c2c1
  Hedgehog: 0.0
> CCc1cc(=O)oc2c(C)c(OCC(=O)N3C[C@H]4C[C@@H](C3)c3cccc(=O)n3C4)ccc12
  Hedgehog: 7.0
> Nc1cc(Cl)cc(Cl)c1
  Hedgehog: 10.7
> COc1ccc(CCC(=O)N2C[C@H]3C[C@@H](C2)c2cccc(=O)n2C3)cc1
  Hedgehog: 3.6
> O=[N+]([O-])c1cc(Cl)c(Cl)cc1Cl
  Hedgehog: 5.4
> CN1CCc2c([nH]c3ccccc23)C1
  Hedgehog: 7.0
> CC1CCCCN1CC(=O)c1ccc2cc[nH]c2c1 (stereo not given)
  Hedgehog: 3.6

Carrying on:
> Brc1ccc(Oc2cc(Br)c(Br)cc2Br)c(Br)c1
  Hedgehog: 5.4
> CCCc1cc(=O)oc2cc(OCC(=O)N3C[C@H]4C[C@@H](C3)c3cccc(=O)n3C4)ccc12
  Hedgehog: 9.0
> CN1CCc2cc3c(cc2C1)OCO3
  Hedgehog: 7.2
> COc1ccc(C(=O)NC(=S)N2C[C@H]3C[C@H](C2)c2cccc(=O)n2C3)cc1
  Hedgehog: 3.5
> COc1ccc2[nH]cc(CCN)c2c1
  Hedgehog: 3.6
> Cc1ccccc1N
  Hedgehog: 12.5
> O=C(O)c1cccc(NC(=O)N2C[C@H]3C[C@@H](C2)c2cccc(=O)n2C3)c1
  Hedgehog: -7.3
> Cc1c(CCC(=O)N2C[C@H]3C[C@@H](C2)c2cccc(=O)n2C3)c(=O)oc2c(C)c(O)ccc12
  Hedgehog: 6.9
> CCOP(=O)(OCC)OCC
  Hedgehog: -1.8
> C[C@H]1C[C@@H](C)C(=O)[C@@H]([C@H](O)CC2CC(=O)NC(=O)C2)C1
  Hedgehog: 5.1

> COc1c(/C=C2/C(=O)NC(=O)N(C)C2=O)c(CCN(C)C(=O)c2ccccc2)cc2c1OCO2
  Hedgehog: 10.3
> COc1ccc(N2C(=O)NC(=O)/C(=C\c3cn(CC(=O)N4CCOCC4)c4ccccc34)C2=O)c(OC)c1
  Hedgehog: 12.9
> Nc1ccccc1C(=O)OCCc1ccccc1
  Hedgehog: 3.6
> CC1C(=O)OC2CCN3CC=C(COC(=O)C(C)(O)C1(C)O)C23 (stereo not given)
  Hedgehog: 5.4
> CCCCOC(=O)c1ccccc1N
  Hedgehog: -5.4
> C1CCC(NC2CCCCC2)CC1
  Hedgehog: 5.4
> C=CCOC(=O)c1ccccc1N
  Hedgehog: 3.6
> CC(=O)O[C@@H]1/C=C/[C@](C)(O)C[C@@H](C)C/C=C/[C@H]2[C@H](O)[C@@](C)(O)[C@@H](C)[C@H]3[C@H](Cc4ccccc4)NC(=O)[C@@]312
  Hedgehog: 5.2
> O=[N+]([O-])c1ccccc1Cl
  Hedgehog: 10.7
> COc1ccc(C(=O)NC(=S)N2C[C@H]3C[C@H](C2)c2cccc(=O)n2C3)cc1OC
  Hedgehog: 7.2

> Nc1ncnc2c1ccn2[C@@H]1O[C@H](CO)[C@@H](O)[C@H]1O
  Hedgehog: 5.1
> CCc1cc(=O)oc2cc(C)cc(OCC(=O)N3CCC(C(=O)O)(c4ccccc4)CC3)c12
  Hedgehog: 3.3
> COc1ccc(CCN)cc1OC
  Hedgehog: 5.2
> CCCCOC(=O)c1ccccc1C(=O)OCc1ccccc1
  Hedgehog: 3.6
> COC1C(OC(=O)c2ccc(C)[nH]2)C(O)C(Oc2ccc3c(O)c(NC(=O)c4ccc(O)c(CC=C(C)C)c4)c(=O)oc3c2Cl)OC1(C)C (stereo not given)
  Hedgehog: 5.2
> CNCC(=O)c1ccccc1
  Hedgehog: 6.9
> CCN(CC)c1ccccc1
  Hedgehog: 1.8
> COc1ccc2c(C)c(CC(=O)N3C[C@H]4C[C@@H](C3)c3cccc(=O)n3C4)c(=O)oc2c1
  Hedgehog: 8.6
> O[C@@H]1CCCN2CCc3c([nH]c4ccccc34)[C@H]12
  Hedgehog: 5.1
> Cc1cc(=O)oc2cc(OCC(=O)N3CCC(C(=O)O)(c4ccccc4)CC3)ccc12
  Hedgehog: 3.3

> OCCCCO
  Hedgehog: 7.1
> CC(=O)O[C@H]1C(=O)[C@@]2(C)C([C@H](OC(=O)c3ccccc3)[C@]3(O)C[C@H](O)C(C)=C1C3(C)C)[C@]1(OC(C)=O)CO[C@@H]1C[C@H]2O (stereo not given in full)
  Hedgehog: 8.6
> Nc1cc(Cl)cc(C(=O)O)c1Cl
  Hedgehog: 5.4
> COc1ccc(N2C(=O)CC(N3CC=C(c4ccccc4)CC3)C2=O)cc1 (stereo not given)
  Hedgehog: 10.7
> CC(C)COC(=O)c1ccccc1C(=O)OCC(C)C
  Hedgehog: 3.6
> O=C(CN1CC(c2ccccc2)CC1=O)Nc1ccc(F)cc1 (stereo not given)
  Hedgehog: 11.1
> c1cncc(C2CCCCN2)c1 (stereo not given)
  Hedgehog: 7.0
> Cc1cc(OCC(=O)N2C[C@H]3C[C@@H](C2)c2cccc(=O)n2C3)c2c(C)c(C)c(=O)oc2c1
  Hedgehog: 13.8
> O=c1cccc2n1CC1CC2CN(C(c2cccc(F)c2)c2sc3ncnn3c2O)C1 (stereo not given)
  Hedgehog: 14.5
> CC(=O)c1cccc(NC2=NCC(C)S2)c1 (stereo not given)
  Hedgehog: 3.6

> CC(=O)O[C@@]12CO[C@@H]1C[C@H](OC1OCC(O)C(O)C1O)[C@@]1(C)C(=O)[C@H](O)C3=C(C)[C@@H](OC(=O)[C@H](O)[C@@H](NC(=O)c4ccccc4)c4ccccc4)C[C@@](O)([C@@H](OC(=O)c4ccccc4)C12)C3(C)C (stereo not given in full)
  Hedgehog: 6.8
> O=C(/C=C/c1ccc(F)cc1)NC(=S)N1C[C@H]2C[C@H](C1)c1cccc(=O)n1C2
  Hedgehog: 1.8
> COc1ccc(NC(=O)[C@@H](NC(=O)N2C[C@H]3C[C@@H](C2)c2cccc(=O)n2C3)C(C)C)cc1
  Hedgehog: 5.1
> Cc1cc(OCC(=O)NC(Cc2ccc(Cl)cc2)C(=O)O)c2c3c(c(=O)oc2c1)CCCC3 (stereo not given)
  Hedgehog: 10.5
> COc1cccc(C(=O)N2C[C@H]3C[C@@H](C2)c2cccc(=O)n2C3)c1
  Hedgehog: 3.6
